Compound activity as filed in PubChem.
Mtb H37Rv = Confirmatory growth inhibition assay against Mycobacterium tuberculosis H37Rv, potency (AID 1949); most inactive calls were filed without a number and no value below 0 was filed; inhibition, % at 10 µg/mL, or IC50 in µg/mL where a hit was titrated; 100,000 tested, 1.6% active;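 active means confirmed in a dose series; inconclusive means about 50% or more but not retested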;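 further: bacteria grown 7 days with compound before Alamar blue readout; 0% = untreated bacteria and 100% = reference antibiotic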
The depositor's hits bear a star; i = inactive; ? = inconclusive.

SMILES	Mtb H37Rv
CCOC(=O)COc1ccc2c(C)cc(=O)oc2c1C	?
COc1cccc(CNC(=O)C(=O)Nc2cccc(F)c2)c1	i
Cc1cccc(C(=O)NC(=S)Nc2ccc(-c3nc4ccc(C)cc4s3)cc2)c1	7.0%
O=C(O)c1cc(S(=O)(=O)NCc2ccccc2)c(Cl)cc1Cl	i
COc1ccc(C2=NN(C(C)=O)C(c3cccs3)C2)cc1OC (centres undefined)	i
O=C(CSc1nnc(NC(=O)c2ccccc2)s1)Nc1cccc([N+](=O)[O-])c1	i
COc1ccc(C(=O)NC(=S)NCc2ccco2)cc1OC	i
O=C(O)CSc1nnc(-c2ccncc2)n1-c1ccccc1	i
CCC(=O)N1CCN(c2ccc(Cl)cc2NC(=S)NC(=O)c2ccccc2OC)CC1	i
Fc1ccc(C2=CC(c3ccc(F)cc3)n3ncnc3N2)cc1 (centres undefined)	0.7%
CCOC(=O)c1sc(NC(=O)COc2cc(C)cc(C)c2)c(C(=O)OCC)c1C	i
COc1ccc(CCNC(=O)NC2CCCCC2)cc1OC	i
COc1ccc(CNCCc2ccccc2F)c(OC)c1C	i
CCOC(=O)C1CCN(C(=S)Nc2ccc(Oc3ccccc3)cc2)CC1	i
Cc1ccc(NC(=O)CSc2nnc(C)c(=O)[nH]2)cc1	i
CCc1cccc(C)c1NC(=O)CSc1nnc(C)n1-c1ccc(F)cc1	0.7%
COc1ccc(Oc2ncnc(N)c2[N+](=O)[O-])cc1	i
CC(=O)Nc1nc(-c2cc(C)ccc2C)c(C)s1	0.5%
CCOc1cc(C(=O)Nc2ccc(N3CCN(S(C)(=O)=O)CC3)cc2)cc(OCC)c1OCC	8.8%
OCCCc1nc2ccccc2n1CC1CCCCC1	i
COCCn1c(SCCc2ccccc2)nc2c1c(=O)[nH]c(=O)n2C	1.6%
COC(=O)c1sc(N2C(=O)C(=O)/C(=C(/O)c3ccc(F)cc3)C2c2ccc(F)cc2)nc1C (centres undefined)	i
COc1cccc(Oc2c(C)oc3cc(OCC(=O)O)ccc3c2=O)c1	i
CC(C)CN1C(=O)c2ccc(C(=O)Nc3ccncc3)cc2C1=O	i
O=C(COc1ccc(Cl)cc1)Nc1ccccc1N1CCCC1	3.5%
O=C(Nc1ccc2c(c1)OCO2)c1cc(F)c(F)cc1Cl	i
Brc1cccc(OCCN2CCNCC2)c1	i
C=CCC(CC=C)(CNC(=O)CCC(=O)O)c1ccccc1	i
COc1cc(OC)cc(C(=O)N(Cc2ccccc2)C(C)(C)C)c1	1.0%
O=C(NCc1cccnc1)c1ccc(COc2ccc3c(c2)CCC3)o1	0.8%
CC(=O)Nc1cccc(N2C(=O)CC(Cc3ccc(Cl)cc3)C2=O)c1 (centres undefined)	i
O=C(Nc1ccc2oc(=O)ccc2c1)c1ccc([N+](=O)[O-])o1	i
Cc1ccc(NCc2cccc(OCc3cccc(F)c3)c2)cc1C	4.0%
OCCNC(=S)Nc1ccc(Br)cc1	i
CC(C)NC(=O)c1ccccc1NC(=O)CN(c1ccc([N+](=O)[O-])cc1)S(=O)(=O)c1ccccc1	i
O=C(Nc1ccccc1C(=O)NC(Cc1ccccc1)C(=O)N1CCCC1)c1ccccc1 (centres undefined)	i
Cc1cc(=O)oc2cc(NC(=O)c3cccc(Cl)c3)ccc12	i
COc1ccccc1CNS(=O)(=O)c1ccc2ccccc2c1	3.9%
CCN1CCN(S(=O)(=O)c2cc(OC)c(Cl)cc2OC)CC1	0.7%
CCOc1ccc(C(=O)NCc2cccs2)cc1OCC	i
COc1ccc(/C=N/N2CCN(C)CC2)cc1O	i
CC(=O)c1c(C)n(CC(=O)NC2CCCCC2)c2ccccc12	i
O=C(CN1C(=O)c2cccc3cccc1c23)Nc1ccc(S(=O)(=O)Nc2ccc(F)cc2)cc1	i
O=C(CCSc1nc2ccccc2s1)Nc1ccccc1Cl	i
Cc1ccccc1CNC(=O)CN(c1ccc(I)cc1)S(C)(=O)=O	i
O=C(Nc1ccc2c(c1)oc1ccccc12)c1ccc2c(c1)OCO2	i
C=CCNC(=O)c1ccccc1NC(=O)CN(c1ccc(OC)c(Cl)c1)S(=O)(=O)c1ccccc1	i
COC(=O)C1=C(C)N=c2s/c(=C\C=C\c3ccccc3)c(=O)n2C1c1ccc(OC)cc1 (centres undefined)	1.1%
CCSc1ccccc1C(=O)NCc1ccco1	i
Cc1ccc(OCCCSc2nc3ccccc3c(=O)n2-c2ccccc2)cc1	i
CCOc1ccccc1NC(=O)NCc1cccnc1	0.8%
O=C(Nc1ccccc1)c1cccc(S(=O)(=O)NCc2cccnc2)c1	i
Cc1ccc(NC(=O)C(C)Oc2ccc(Cl)cc2Cl)c(C)c1 (centres undefined)	i
NC(=O)c1c(NC(=O)COc2ccccc2Cl)sc2c1CCCC2	i
Cc1cc(-c2csc(Nc3ncccn3)n2)ccc1F	0.9%
O=c1[nH]c(-c2ccc(OCc3ccccc3F)cc2)nc2ccccc12	i
CCC(=O)Nc1ccc(C(=O)OCC(=O)c2ccc(Cl)c(Cl)c2)cc1	i
CC(C)(C)c1ccc(S(=O)(=O)CCSc2nc3ccccc3o2)cc1	i
CC(=O)Oc1ccc(C(=O)N2CCN(c3cccc(C(F)(F)F)c3)CC2)cc1	i
Cc1ccc(NC(=O)CSc2n[nH]c(-c3ccco3)n2)cc1	?

Quoted from above, four compounds:
SMILES	Mtb H37Rv
CCC(=O)Nc1ccc(C(=O)OCC(=O)c2ccc(Cl)c(Cl)c2)cc1	i
CC(C)(C)c1ccc(S(=O)(=O)CCSc2nc3ccccc3o2)cc1	i
CC(=O)Oc1ccc(C(=O)N2CCN(c3cccc(C(F)(F)F)c3)CC2)cc1	i
Cc1ccc(NC(=O)CSc2n[nH]c(-c3ccco3)n2)cc1	?

Next section
SMILES	Mtb H37Rv
O=[N+]([O-])c1ccc(N2CCN(CCO)CC2)cc1Sc1ccccn1	i
CC(C(=O)N1CCCc2ccccc21)N1C(=O)c2ccccc2C1=O (centres undefined)	i
O=C(NCCCN1CCCC1=O)c1cccs1	i
COc1cc(F)ccc1S(=O)(=O)N1CCC(Cc2ccccc2)CC1	i
Cc1cc(C)c(C)c(S(=O)(=O)N2CCCC2)c1C	1.6%
COc1ccccc1NC(=O)c1ccn[nH]1	i
Cc1ccc2nc(-c3ccc(NC(=O)CS(=O)(=O)Cc4ccccc4)cc3)sc2c1	i
O=C(c1ccccc1)N1CCN(C2CC(=O)N(c3ccc(Br)cc3)C2=O)CC1 (centres undefined)	i
O=C1CC(c2nc3ccccc3[nH]2)CN1c1ccccc1 (centres undefined)	3.1%
C=CCOc1ccc(C2c3c(oc4ccc(F)cc4c3=O)C(=O)N2Cc2ccccc2Cl)cc1 (centres undefined)	i
Cc1cc(Cl)ccc1N(CC(=O)NCC1CCCO1)S(=O)(=O)c1ccccc1 (centres undefined)	i
CC(=O)Oc1cccc(N2C(=O)CC(Nc3ccc(N4CCOCC4)cc3)C2=O)c1 (centres undefined)	i
CCOC(=O)c1cccc(NC(=O)CSc2nnc(CNC(=O)c3ccc(Cl)cc3)n2CC)c1	i
O=C(Nc1ccc2c(c1)C(=O)NC2=O)c1ccc(Br)o1	0.2%
Cc1cccc(OCc2nnc(SCC(=O)Nc3cccc4ccccc34)o2)c1C	i
Cc1cc(C)c(C)c(OCC(=O)NCCN2CCOCC2)c1	i
CCC(=O)NC(=S)Nc1cccc(C)c1C	0.1%
Cc1ccc(C(=O)Nc2cccc(Cl)c2C)o1	7.4%
CCCCC(=O)Nc1ccc(C(=O)NCc2ccc(OC)cc2)cc1	5.6%
O=C(Oc1ccccc1)Oc1ccc2c(c1)oc(=O)c1ccccc12	i
Nc1cc(=O)[nH]c(SCC(=O)N(C2CCCCC2)C2CCCCC2)n1	i
CCn1ncc(NC(=S)NCCc2ccc(OC)c(OC)c2)c1C(N)=O	i
Cn1cc(Br)c(C(=O)NN2C(=O)C3C4C=CC(C5CC45)C3C2=O)n1 (centres undefined)	2.3%
CCCOc1ccc(C2NC(=S)NC(C)=C2C(=O)OCc2ccccc2)cc1 (centres undefined)	31.0%
Cc1cc(Oc2nnnn2-c2ccc(C(N)=O)cc2)ccc1Cl	i
O=C(c1ccc(F)cc1)N1CCC(C(=O)N2CCN(Cc3ccc4c(c3)OCO4)CC2)CC1	i
COc1ccc(CC(=O)Nc2ccc(-c3nnc(-c4ccccc4)o3)cc2)cc1	i
COc1ccc(NC(=S)NC(C)c2ccncc2)cc1OC (centres undefined)	9.1%
O=C1CN(C(=O)C23CC4CC(CC(C4)C2)C3)CC(=O)N1CCc1ccccc1	i
Cc1cc(C)nc(NS(=O)(=O)c2ccc(NC(=O)NC3CCCCC3)cc2)n1	i

Part of the list above, field by field:
> Nc1cc(=O)[nH]c(SCC(=O)N(C2CCCCC2)C2CCCCC2)n1
- Mtb H37Rv: i

> CCn1ncc(NC(=S)NCCc2ccc(OC)c(OC)c2)c1C(N)=O
- Mtb H37Rv: i

> Cn1cc(Br)c(C(=O)NN2C(=O)C3C4C=CC(C5CC45)C3C2=O)n1 (centres undefined)
- Mtb H37Rv: 2.3%

> CCCOc1ccc(C2NC(=S)NC(C)=C2C(=O)OCc2ccccc2)cc1 (centres undefined)
- Mtb H37Rv: 31.0%

(next part)
SMILES	Mtb H37Rv
CC1(C)CC(=O)CC(C)(C)N1OC(=O)c1ccncc1	i
COc1ccccc1CNC(=O)c1cccc(N(C)C)c1	i
CN1CCN(C(=O)c2ccccc2-c2nc(-c3ccc(Cl)cc3)no2)CC1	i
O=c1[nH]c(CN2CCC(Cc3ccccc3)CC2)nc2ccccc12	i
Cn1ncc(C#N)c1/N=C/N1CCOCC1	i
O=C(CN(Cc1ccc(F)cc1)S(=O)(=O)c1ccccc1)NCc1cccnc1	0.8%
O=C(Cn1nc(C(F)(F)F)c2c1CCC2)N1CCCc2ccccc21	0.2%
Cc1ccc(Oc2nc3ccccc3n3cnnc23)cc1	i
Cc1c(C)c2cc(Cl)c(O)c(CN(C)C)c2oc1=O	2.2%
CN1C(=O)c2ccc(C(=O)Nc3ccccc3I)cc2C1=O	0.4%
CCOc1cccc(C(=O)Nc2nnc(CC(=O)OC)s2)c1	i
COC(=O)c1cccc(Cn2nnc3ccccc3c2=O)c1	i
CCCC(=O)Nc1cccc(NC(=S)NC(=O)c2cccc(OC)c2)c1	i
O=C(O)CN(c1cc(Cl)cc(Cl)c1)S(=O)(=O)c1ccccc1	i
CS(=O)(=O)N(CC(=O)NC1CCCC1)c1ccc(F)cc1	i
Cc1ccc(OCC(=O)Nc2ccc(S(=O)(=O)NC(C)(C)C)cc2)c(Br)c1	i
CCOc1ccc(C(=O)Nc2cc(C)ccn2)cc1	i
COc1ccc(Cl)cc1NC(=O)N1CCN(CCc2ccccc2)CC1	i
Cc1ccc(C(C)C)c(Oc2ccc(NC(=O)CCCC(=O)O)cc2)c1	i
COC(=O)c1ccccc1NC(=O)C1CCCC1	i
O=c1[nH]c(/C=C\c2cccc(OCc3c(F)cccc3Cl)c2)c([N+](=O)[O-])c(=O)[nH]1	i
O=C(NN1CCOCC1)c1cc2c(s1)CCCC2	i
COc1ccc(S(=O)(=O)N(CC(=O)NC2CCCCC2)c2cccc(Cl)c2)cc1	i
COc1ccc(CNc2nc(C)cc(C)c2C#N)cc1	i
O=c1c[n+]([O-])c2ccccc2n1OCc1ccccn1	i
COc1cc(C(C)=O)ccc1OCC(O)CN1CCN(c2ccccn2)CC1 (centres undefined)	i
O=C(CS(=O)(=O)c1ccccc1)Nc1cc(Cl)ccc1Cl	i
CC1(C)NCCN2C(=O)CSC21 (centres undefined)	0.2%
Cc1nnc(NC(=O)c2ccc3c4c(cccc24)CC3)s1	i
Cc1ccc(-c2nc3ccccc3c(=O)n2-c2cccc(C(F)(F)F)c2)cc1	13.6%

6 structures already listed, arranged by molar mass, ascending:
SMILES	Mtb H37Rv
CCOc1ccc(C(=O)Nc2cc(C)ccn2)cc1	i
O=C(NN1CCOCC1)c1cc2c(s1)CCCC2	i
O=C(CS(=O)(=O)c1ccccc1)Nc1cc(Cl)ccc1Cl	i
COc1ccc(Cl)cc1NC(=O)N1CCN(CCc2ccccc2)CC1	i
COc1cc(C(C)=O)ccc1OCC(O)CN1CCN(c2ccccn2)CC1 (centres undefined)	i
Cc1ccc(OCC(=O)Nc2ccc(S(=O)(=O)NC(C)(C)C)cc2)c(Br)c1	i

(list continues)
SMILES	Mtb H37Rv
O=c1c2ccccc2nnn1Cc1ccc(S(=O)(=O)c2ccccc2)cc1	i
COc1ccc2nc(SCCc3ccccc3)nc(C)c2c1	?
COc1ccc(C(=O)Nc2ccc([N+](=O)[O-])cn2)cc1OC	1.0%
O=C(O)c1ccc(Nc2nc(-c3ccc(O)cc3O)cs2)cc1	6.3%
CC(=O)Nc1ccc(N2C(=O)CC(NCCc3cccc(F)c3)C2=O)cc1 (centres undefined)	i
COc1cccc(N2CCN(C(=O)C(C)N3C(=O)c4ccccc4C3=O)CC2)c1 (centres undefined)	i
OC(CN1CCN(C(c2ccccc2)c2ccccc2)CC1)Cn1c2ccccc2c2ccccc21 (centres undefined)	10.7µg/mL*
O=C1CC(SCCc2nc3ccccc3[nH]2)C(=O)N1c1ccc(Cl)cc1 (centres undefined)	i
Cc1cc(C)cc(NC(=O)CC2CCCCC2)c1	i
COc1cccc(OCCOc2ccc(Br)cc2Cl)c1	i
O=C(CSc1ccccn1)Nc1ccc(Cl)cc1Cl	i
C=CCn1c(CCCc2ccc(OC)cc2)nnc1SCc1nc2ccccc2c(=O)[nH]1	i
Cc1cc(C)nc(NC(=O)C(C)N2C(=O)c3ccccc3C2=O)n1 (centres undefined)	i
Cc1cccc(C(=O)NCc2ccc(Cl)cc2)c1[N+](=O)[O-]	4.9%
CS(=O)(=O)N(CC(=O)NC1CCCC1)c1ccc(I)cc1	2.1%
CCCCS(=O)(=O)Nc1ccc2c(c1)ncn2C1CCCCC1	i
Nc1c(C(=O)N2CCCCC2)sc2nc(N3CCOCC3)c3c(c12)CCCC3	i
CSc1cccc(NC(=O)CN(CCc2ccccc2)S(=O)(=O)c2ccc(Cl)cc2)c1	6.6%
C=CCOc1cccc(CNCCSc2nnnn2C)c1	i
CCC1(c2ccccc2)C(=O)NC(=O)N(C(=O)c2ccccc2Cl)C1=O (centres undefined)	6.1%
C/C(Cl)=C/Cc1c(C)[nH]c2ccccc2c1=O	16.6µg/mL*

A portion of the library, so the mix of outcomes need not match the whole.
